# Assay outcomes (PubChem)
# StopGo FLuc = FMDV 2A StopGo reporter, firefly signal; hit rate 0.23% among 120,000; AID 1745856; Potency, µM (top dose mostly 57.5 µM), for the others: at the top dose signal change, negative = less light; HEK cells with a luciferase reporter of 2A StopGo recoding; active = well fitted falling curve with a large enough effect; inconclusive = small, poorly fitted or top-dose-only effect; inactive = no such curve, though single readings can be large or run the other way; further: nearly all actives have a fitted effect of over 60% in size; overnight with compound
# 2A Renilla = lowers the Renilla signal of an FMDV 2A StopGo reporter | Potency, µM (top dose mostly 57.5 µM), without a hit: at the highest dose signal change, negative = less light | hit rate 0.32% among 120,000 | AID 1745857 | HEK cells with a luciferase reporter of 2A StopGo recoding; active means well fitted falling curve with a large enough effect; inconclusive means small, poorly fitted or top-dose-only effect; inactive means no such curve, though single readings can be large or run the other way; further: nearly all actives have a fitted effect of over 55% in size; overnight with compound
# Numbers without * were called inactive; ? = inconclusive; [ ] = another dose, or the depositor's remark. On the % scale 0 is the no-effect control and ±100 the full control effect; potency means the concentration at half of the fitted maximal effect. These rows are one share of the data; the hit share may differ from the screen's.
item	SMILES	StopGo FLuc	2A Renilla
1	COc1cc(COc2ccc(C(C)=O)cc2)c(OC)cc1Br	13.8%	10.6%
2	N#C/C(=C\c1ccc(-c2ccc(Cl)c(Cl)c2)o1)c1ccccc1	0.0%	3.4%
3	O=C(COc1ccccc1)Nc1nnc2n1CCS2	-8.5%	3.8%
4	CN(CCO)c1ccc(/C=N/NC(=O)C2CC2)cc1	132.6%[activator]	0.8%
5	CC(C(=O)N(C)C1(C#N)CCCCC1)n1cnc2c1c(=O)n(C)c(=O)n2C (centres undefined)	-11.5%	-4.2%
6	COc1ccc(CNC(=O)c2cccc(Oc3ccccc3)c2)cc1	?	0.0%
7	O=C(CSc1nnnn1C1CC1)c1ccc(-c2ccccc2)cc1	45.1%[activator]	-4.8%
8	COc1ccc(C(=O)N2CCC(c3nc4ccccc4o3)CC2)cc1	?	?
9	Cc1ccc(-c2nonc2NC(=O)c2ccc(F)cc2)cc1C	-5.0%	2.9%
10	COc1ccccc1C(=O)N(c1ccc(C)cc1)S(=O)(=O)c1ccc(Cl)cc1	?	-6.0%
11	COc1ccc(NC(=O)c2c(-c3ccc(C)cc3)nnc3ccccc23)cc1Cl	30.3%[activator]	-11.3%
12	C=CCOc1ccc(/C=C(\C#N)C(=O)NCCN2CCOCC2)cc1	10.1%	-3.6%

# Next records.
item	SMILES	StopGo FLuc	2A Renilla
13	N#Cc1nc(-c2ccccc2F)oc1N1CCN(Cc2ccccc2)CC1	116.2%[activator]	11.3%
14	Cc1ccc(/C=N/Nc2ccc(S(=O)(=O)Nc3cccc(Cl)c3)cc2[N+](=O)[O-])s1	185.2%[activator]	284.8%[activator]
15	CCc1cccc(NC(=O)c2c(C)oc3ncnc(N4CCCCC4)c23)c1	-20.4%	28.2%
16	CCOc1ccc2ncc3c(-c4ccccc4)nn(CC(=O)Nc4cccc(F)c4)c3c2c1	-21.0%	-13.5%
17	CCCn1c(SCCCn2c(=O)c3c(ncn3C)n(C)c2=O)nc2ccccc2c1=O	-1.5%	9.2%
18	Clc1ccc(CNC2=NCCNC23CCOCC3)cc1	-3.8%	-8.5%
19	O=C(CSc1nc(=O)[nH]c2c1CCC2)NCc1ccc(Cl)cc1	-12.7%	-1.4%
20	C=C(C)Cn1c(N2CCOCC2)nc2c1c(=O)[nH]c(=O)n2C	-5.8%	-6.4%
21	O=C(Nc1ccc(Cl)c(C(F)(F)F)c1)c1ccccc1	3.4%	?
22	CCOC(=O)c1ccc(N2C(=O)c3n[nH]c(-c4cccs4)c3C2c2cccc(OC)c2)cc1 (centres undefined)	?	?
23	O=C(NCc1coc(-c2cccs2)n1)c1cc(F)c(Cl)cc1Cl	11.2%	18.8%
24	COc1ccc(C(=O)Nc2ccc(Cl)cc2C(=O)N2CCCCCC2)cc1	-8.1%	191.6%[activator]

# The list goes on.
item	SMILES	StopGo FLuc	2A Renilla
25	CC1=C(C(=O)OC(C)(C)C)C(/C(Cl)=C/c2ccccc2)NC(=O)N1 (centres undefined)	-9.1%	4.2%
26	COc1cccc(CNS(=O)(=O)c2ccc3c(c2)C(C(C)C)C(=O)N3)c1 (centres undefined)	-23.3%	-8.4%
27	Cc1cccc(CS(=O)Cc2coc(-c3ccc(F)cc3)n2)c1 (centres undefined)	14.6%	-6.2%
28	Cc1cc(C)nc(/N=C2\NC(=O)CC(C(=O)O)N2c2ccc(C)c(C)c2)n1 (centres undefined)	-6.0%	-9.0%
29	CCCCOC(=O)/C(C#N)=C\c1ccc(-c2ccc(Cl)cc2)o1	-17.9%	-12.9%
30	COc1cc(NC(=O)CSc2ccc(-c3ccccn3)nn2)cc(OC)c1	0.0%	-3.0%
31	COc1ccc(-c2coc3c(C)c(OCCN4CCC(C(N)=O)CC4)ccc3c2=O)cc1	89.0%[activator]	-3.2%
32	O=C(CCc1ncc(-c2ccccc2Cl)o1)NC1=NCCS1	19.9%	-5.5%
33	COC(=O)C1CN(CC(C)C)CCS(=O)(=O)N1Cc1ccc(F)cc1 (centres undefined)	0.3%	58.7%[activator]
34	O=C(Cn1nnc(-c2ccc(Br)cc2)n1)N1CCOCC1	45.6%[activator]	-2.8%
35	CCCCOC(=O)COc1ccc(S(=O)(=O)c2ccc(OCC(=O)OCCCC)cc2)cc1	-5.7%	1.3%
36	O=C(CC1CCCC1)NCC1CCCO1 (centres undefined)	7.3%	-14.1%

# (further entries)
item	SMILES	StopGo FLuc	2A Renilla
37	Cc1oc(-c2ccc(OC(C)C)cc2)nc1Cn1nnc(C(=O)NCc2ccc(Cl)cc2)c1N	1.9%	-12.7%
38	COc1ccc(OC)c(C2CC(=O)c3c([nH]c(C(=O)OC4CCC(C)CC4)c3C)C2)c1 (centres undefined)	-4.4%	4.4%
39	Cc1cccc(N2CCN(C(=O)Cn3c(-c4cccs4)cc4ccccc43)CC2)c1C	-5.7%	-2.3%
40	O=C(NC(NC(=O)c1cccc(Cl)c1)c1ccccc1)c1cccc(Cl)c1	7.2%	0.0%
41	O=C(c1cc(C2=NNC(=Nc3ccc(Cl)cc3)SC2)c[nH]1)N1CCCC1	0.0%	37.8%[activator]
42	CCc1cccc(-n2c(=O)c3cccnc3n2CC(=O)Nc2ccc(OC)c(Cl)c2)c1	?	-9.7%
43	CCOc1ccc(NC(=O)C2CC(=O)Nc3c(-c4ccc(F)cc4)cnn32)cc1 (centres undefined)	16.7%	-3.4%
44	Cc1cc(C)cc(NC(=O)N2CCC(N3CCN(Cc4ccccc4)C(=O)C3=O)CC2)c1	-10.3%	1.7%
45	COc1cccc(-c2ccc(=O)n(CC(=O)N3CCc4cc(OC)c(OC)cc4C3)n2)c1	6.2%	-8.1%
46	CCOC(=O)c1cc(CC)sc1NC(=O)COc1ccccc1C	-16.8%	-11.9%
47	COc1ccc(CCNC(=O)c2cnc3ccc(C)cn3c2=O)cc1OC	-13.5%	-4.9%
48	O=C(N/N=C/c1ccsc1)c1cccc(C(F)(F)F)c1	50.2%[activator]	-2.4%

# (cont.)
item	SMILES	StopGo FLuc	2A Renilla
49	CC(C)CN1CCOC(CNC(=O)N2CCN(S(=O)(=O)c3ccc4c(c3)CCCC4)CC2)C1 (centres undefined)	-9.9%	-6.6%
50	C[C@]12CCC(=O)C=C1CC[C@@H]1[C@@H]2CC[C@@]2(C)[C@H]1CC[C@@]21CCC(=O)O1	?	?
51	Cc1c(NC(=O)C2CCN(S(=O)(=O)Cc3ccccc3F)CC2)c(=O)n(-c2ccccc2)n1C	6.0%	-1.2%
52	O=C(CCc1nnc2ccc(N3CCCCC3)nn12)N1CCCC1	7.9%	-6.0%
53	N#CC(c1nc2ccccc2nc1NC1CCCC1)S(=O)(=O)c1ccc(F)cc1 (centres undefined)	?	75.6%[activator]
54	Cc1nc2cc(NS(=O)(=O)c3cc(Cl)cc(Cl)c3)ccc2o1	-7.6%	0.0%
55	NCC[C@H](O)C(=O)N[C@@H]1C[C@H](N)[C@@H](O[C@H]2O[C@H](CN)[C@@H](O)[C@H](O)[C@@H]2O)[C@H](O)[C@@H]1O[C@H]1O[C@H](CO)[C@@H](O)[C@H](N)[C@@H]1O	-17.8%[0.46 µM]	-15.1%[0.46 µM]
56	Cc1cccc(NC(=O)c2ccc3[nH]c(C)c(C)c3c2)c1C	?	?
57	O=C(NCCc1cccc(F)c1)C1CC=CCC1 (centres undefined)	33.9%[activator]	-0.1%
58	COc1ccc(OC)c(CC(C#N)C(=O)Nc2cc(C)ccc2C)c1 (centres undefined)	1.1%	14.5%
59	Cc1cc(NC(=O)c2cccn2-c2nnc(N3CCCCC3)s2)ccc1Br	15.5%	12.5%
60	COCc1cc(C)n(CC(=O)Nc2cccc(C(F)(F)F)c2)c(=O)c1C#N	-12.9%	-3.0%

# Additional compounds follow.
item	SMILES	StopGo FLuc	2A Renilla
61	Cc1nc2ccc(S(=O)(=O)N(CC(=O)N3CCOCC3)Cc3ccccc3)cc2s1	-7.0%	0.0%
62	CC(C)CCn1nc(C(=O)OCc2nnc(-c3ccccc3)o2)c2ccccc2c1=O	0.0%	9.1%
63	Cc1cccc(C)c1NC(=O)c1cnc2ccccc2n1	30.6%	-0.9%
64	Cc1nn(C)c2c1c(C(F)(F)F)cc(=O)n2CC(=O)N1CCCCC1C (centres undefined)	-14.7%	-11.0%
65	CC(=O)OCC1OC(Oc2ccc(C(=O)Cc3ccc4c(c3)OCCO4)c(O)c2)C(OC(C)=O)C(OC(C)=O)C1OC(C)=O (centres undefined)	63.0%[activator]	7.1%
66	COc1ccc(NC(=O)Cn2c(-c3ccc(F)cc3)cc(C(C)=O)c2C)c(OC)c1	-1.7%	-6.3%
67	O=C(NCc1ccc(Cl)cc1)C(=O)NCC(c1ccc2c(c1)OCO2)N1CCOCC1 (centres undefined)	-20.3%	-12.5%
68	CCc1cccc(NCc2ccccc2-c2nnc(-c3ccccc3Cl)o2)c1	22.5%	193.4%[activator]
69	COc1ccc(OCCn2nnc3sc4c(c3c2=O)CCC(C(C)(C)C)C4)cc1 (centres undefined)	-10.1%	-6.8%
70	COc1ccc(C2=[N+]([O-])C(C)(c3ccccc3)N(O)C2C)cc1 (centres undefined)	7.8%	27.8%
71	CCCN(Cc1ccccc1)C(=O)c1ccc(NC(C)=O)s1	23.0%	34.6%[activator]
72	Cc1nn(C)c(Cl)c1C=O	-3.3%	5.8%

# Next compounds.
# Second line of a record: StopGo FLuc | 2A Renilla
[73] NC1CCN(CCCc2ccccc2)CC1
    0.0% | -7.4%
[74] Cc1ccc2oc(=O)c3cc(C(=O)Nc4cccc(C#N)c4)sc3c2c1
    -22.6% | -0.4%
[75] CCCCn1c(SCC(=O)NC2CC2)nc2cc(C(=O)OC)ccc2c1=O
    -1.8% | -4.7%
[76] Cc1cc(C)c(Cn2c(=O)n(CCCCC(=O)NCc3ccccc3Cl)c(=O)c3ccccc32)c(C)c1
    -3.1% | -10.6%
[77] O=S(=O)(c1ccc(F)cc1)N1CCCN(c2nnnn2-c2ccccc2)CC1
    -7.1% | 3.5%
[78] CN1CCN(C(=O)c2cc(-c3ccccn3)nc3ccccc23)CC1
    -1.3% | 5.4%
[79] Cc1cc(S(=O)(=O)Nc2ccc3oc4c(c3c2)CCCC4)ccc1Cl
    -14.0% | 28.9%
[80] O=C(CCn1ccc2ccccc21)NC1CCCCCCC1
    6.3% | ?
[81] Cc1ccc2c(=O)cc(C(=O)Nc3ccc4nsnc4c3)oc2c1
    -14.1% | -11.0%
[82] CCCCc1cc(=O)oc2cc(OCC(N)=O)ccc12
    59.9%[activator] | 13.2%
[83] COc1ccc(CCN2CCC(CNC(=O)c3cnn(-c4ccccc4)c3C3CCN(C(=O)OC(C)(C)C)CC3)CC2)cc1
    -13.1% | -17.9%
[84] COc1ccccc1NC(=O)c1cc(-c2ccccn2)nc2ccccc12
    9.2% | 9.7%
[85] COC(=O)c1cccc(COc2ccc(Br)cc2)c1
    97.1%[activator] | 11.4%
[86] COc1ccc(Cn2c(=O)n(-c3ccc(F)c(Cl)c3)c(=O)c3c2c2cc(OC)ccc2n3C)cc1
    -9.5% | -10.7%
[87] COCCN(Cc1cc2ccc(C)cc2[nH]c1=O)C(=O)c1ccc(OC)c(OC)c1
    18.4% | 6.1%
[88] Cc1cc(C(C)(C)C)ccc1OC(=O)/C=C/c1cccs1
    17.0% | -3.3%
[89] Cc1ccc(S(=O)(=O)N(CC(=O)NCCSc2ccc(Cl)cc2)c2ccccc2C)cc1
    -24.5% | -3.6%
[90] Cc1ccc(-c2cc(C(=O)Nc3ccccc3F)no2)cc1C
    0.0% | 5.8%
[91] COc1cccc(NC(=O)CN2C(=O)C3(SCC(=O)N3c3cc(C)cc(C)c3)c3ccccc32)c1 (centres undefined)
    -7.3% | -14.2%
[92] COC(=O)C1CN(CCc2ccccc2)CCS(=O)(=O)N1Cc1ccc(F)cc1 (centres undefined)
    0.0% | 45.0%[activator]
[93] COc1ccc(S(=O)(=O)N2CCC[C@H]2C(=O)Nc2cc(C)on2)cc1Cl
    -12.3% | 39.0%[activator]
[94] COc1ccccc1CNC(=O)c1ccc(-c2nc(CS(=O)(=O)c3ccc(C)cc3)c(C)o2)cc1
    -9.4% | 28.3%
[95] CC1OC(OC2CCC3(C=O)[C@H]4CCC5(C)C(C6=CC(=O)OC6)CCC5(O)[C@@H]4CCC3(O)C2)CC2OC(C)(C)OC12 (some centres undefined)
    1µM* | 1.26µM*
[96] CCN(C(=O)c1ccc2c(c1)N(Cc1cccc(Cl)c1)C(=O)c1ccccc1S2=O)c1ccccc1 (centres undefined)
    -19.2% | ?
[97] Oc1c(C(c2ccccc2)N2CCN(Cc3ccccc3)CC2)sc2nc(-c3ccco3)nn12 (centres undefined)
    5.3% | -13.6%
[98] Cn1cnnc1-c1ccc(NS(=O)(=O)c2ccc3c(c2)CCC3)cc1
    24.6% | 0.0%
[99] O=C(O)c1ccccc1Nc1cccc(C(F)(F)F)c1
    -8.0%[11.5 µM] | -8.2%
[100] CCCCCCCCCCCCOS(=O)(=O)O
    -0.9%[11.5 µM] | -1.0%
[101] COc1cccc(-c2nc(CCNC(=O)COc3ccc(Cl)cc3)cs2)c1
    38.1%[activator] | 16.8%
[102] Nc1nccnc1C(=O)NCCc1ccc(C(F)(F)F)cc1
    92.7%[activator] | ?
[103] Cc1ccc2cc3cc(C(=O)N(C)c4ccccc4C)oc3nc2c1
    180.5%[activator] | 13.6%
